# Source: PubChem BioAssay
# CSC inhib: cancer stem cell inhibition | inhibition, % at 7.5 µM | cancer stem cell-like cells viability, luminescence | AID 2717 | 1.1% of 300,000 active;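 active = mean at 75% or more and at least half the replicates too; inconclusive = mean and replicates disagree; tested in HMLE shEcad cells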;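 note: 0% = median of negative and 100% = median of positive control wells; the first replicate is given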
# HIV Env fusion: inhibitors of HIV Env-mediated cell fusion; inhibition, % at 12.3 µM; 1.1% of 360,000 active; AID 651610; HeLa-JRFL Env/CEM21 cell fusion, luciferase;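 active = mean replicate inhibition score of at least 50 and every replicate individually at or above 50; inconclusive = only one of the two criteria met; inactive = mean below 50 and not all replicates reaching 50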;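 note: 0% = plate neutral controls and 100% = maraviroc near 300 nM; one replicate is shown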
# Yeast UUG start: alters start codon recognition fidelity in yeast. activity score, % at 18.7 µM. 0.13% of 350,000 active. S. cerevisiae UUG-firefly luciferase reporter, luminescence/redox ratio. AID 602363;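 active = replicate mean at a twofold rise or more, about +100% in these data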;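 note: firefly luciferase made from a UUG start codon reports start codon fidelity; reporter light over untreated wells divided by growth signal over untreated wells; some hits fall short of that in this replicate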
# eIF4H FP inh: inhibitors of RNA binding by human eIF4H | Q15056 | eIF4H fluorescence polarization binding assay | inhibition, % at 35 µM | 0.94% of 290,000 active | AID 2012;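 active = 50% or more with normal probe brightness, or confirmed in later tests; inconclusive = above 50% with abnormal brightness, or retests that disagree; inactive = below 50% or failed in later tests; about a fifth of its hits are not listed in these tables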;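 note: calls also rest on retests at 20 µM and on dose response follow-up; 0% = protein and probe with vehicle and 100% = probe without protein; strong numbers were not always called active; many hits fall short of the cut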
# MT1-MMP act inh: blocks activation of human MT1-MMP | GFP/RFP ratio change, % at 20 µM | 0.061% of 360,000 active | AID 651647 | P50281 | HT1080 RFP-PRO-GFP cells, GFP/RFP ratio fluorescence, overnight; percent of plate control window, DMSO zero;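 active = GFP/RFP ratio change of at least 30% with cell ATP level not reduced by more than half and red fluorescence within 50% of control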; note: strong numbers were not always called active
#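 system = RFP-PRO-GFP reporter HT1080 cells | dosing = 20 µM single dose, 1% DMSO | timing = overnight cell settling, then overnight compound exposure, 37 °C, 5% CO2 | read-out basis = GFP/RFP fluorescence ratio | controls = DMSO and RFP-L50D-GFP cell wells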
# Rce1 inhib: blocks yeast Ras-converting enzyme; calls only; AID 2563; Q03530; yeast membranes, quenched prenylated peptide cleavage fluorescence; 0.27% of 290,000 active;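 active = fall in fluorescence gain of 50% or more versus controls, with final raw signal at or below 3038400; inconclusive = same 50% fall but final raw signal above 3038400; inactive = fall in fluorescence gain under 50%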;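 note: plate controls were neutral control wells for no effect and wells lacking membranes for full effect; tested at 10 µM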
# Target sequence (Q03530 whole entry, looked up): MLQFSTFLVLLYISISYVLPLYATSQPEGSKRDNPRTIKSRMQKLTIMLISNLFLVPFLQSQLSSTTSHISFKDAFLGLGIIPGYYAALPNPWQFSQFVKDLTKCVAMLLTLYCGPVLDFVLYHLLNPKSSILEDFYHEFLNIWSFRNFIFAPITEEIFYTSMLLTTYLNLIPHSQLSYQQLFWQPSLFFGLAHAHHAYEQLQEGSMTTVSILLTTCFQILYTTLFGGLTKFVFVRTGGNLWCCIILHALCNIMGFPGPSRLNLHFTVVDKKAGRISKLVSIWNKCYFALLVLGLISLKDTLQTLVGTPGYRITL
# PABP polyA inh: blocks human PABP binding to poly(A) RNA | P11940 | fluorescence polarization | inhibition, % at 35 µM | 1% of 290,000 active | AID 2014;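 active = 50% or more with normal probe brightness, or confirmed in later tests; inconclusive = above 50% with abnormal brightness, or retests that disagree; inactive = below 50% or failed in later tests; about a fifth of its hits are not listed in these tables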;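 note: calls also rest on retests at 20 µM and on dose response follow-up; controls were probe without protein and protein plus probe with vehicle; some compounds called inactive have numbers as strong as hits; many hits fall short of the cut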
# Target sequence (P11940 whole entry, looked up): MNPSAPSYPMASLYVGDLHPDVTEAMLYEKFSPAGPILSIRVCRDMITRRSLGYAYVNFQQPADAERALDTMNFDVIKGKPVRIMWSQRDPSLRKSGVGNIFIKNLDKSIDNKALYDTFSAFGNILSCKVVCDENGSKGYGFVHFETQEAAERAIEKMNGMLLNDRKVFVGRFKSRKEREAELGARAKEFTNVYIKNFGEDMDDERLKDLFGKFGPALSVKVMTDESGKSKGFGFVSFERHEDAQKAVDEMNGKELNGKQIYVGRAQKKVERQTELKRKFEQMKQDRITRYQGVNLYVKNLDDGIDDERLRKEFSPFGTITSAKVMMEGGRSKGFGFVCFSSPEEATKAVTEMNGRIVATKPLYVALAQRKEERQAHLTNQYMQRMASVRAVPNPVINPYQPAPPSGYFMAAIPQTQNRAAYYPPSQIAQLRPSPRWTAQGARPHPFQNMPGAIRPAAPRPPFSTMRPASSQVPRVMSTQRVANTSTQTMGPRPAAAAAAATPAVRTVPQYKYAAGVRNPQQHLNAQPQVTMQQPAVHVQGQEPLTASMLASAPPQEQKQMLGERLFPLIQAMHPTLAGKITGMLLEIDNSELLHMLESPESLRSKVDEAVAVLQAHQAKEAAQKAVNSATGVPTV
# eIF4H FP inh retest: further read-out of eIF4H FP inh, marked with its call; inhibition, %; compound at 20 µM; confirmation average;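 mean of two retest wells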
# PABP polyA inh retest: second read-out of PABP polyA inh, no call of its own (marks repeat the call); inhibition, %; compound at 20 µM; confirmation repeats;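 mean of two retest wells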
# MT1-MMP act inh RFP: recorded beside MT1-MMP act inh, whose call it bears; RFP signal change, %; measured here: RFP expression control read;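 0 = vehicle wells; hits needed this value within 50% of zero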
# Active calls of the source: *; i = inactive; u = inconclusive; x = no result given. Not a hit list, and some 2.9% of all compounds hit somewhere here.
SMILES,CSC inhib,HIV Env fusion,Yeast UUG start,eIF4H FP inh,MT1-MMP act inh,MT1-MMP act inh RFP,Rce1 inhib,PABP polyA inh,others
COc1ccccc1NC(=S)N(Cc1cccs1)C1CCCC1,7,-3,x,2,-4,0,i,6,
COc1cccc(CC(=O)OC(C)C(=O)Nc2ncc(Cl)cc2Cl)c1 (stereo unspecified),1,-9,-17,x,10,3,i,x,
C=CCNc1nc2c(c(=O)[nH]c(=O)n2C)n1CC(O)COc1ccc2ccccc2c1 (stereo unspecified),x,10,11,-6,0,-8,i,3,
O=C(CSC(=S)N1CCCCC1)c1c(F)cccc1F,x,-144,x,1,3,-2,i,12,
CCOCCCNC(=O)c1ccc(N(C)S(=O)(=O)c2ccc(OC)cc2)cc1,-6,-42,-5,-9,1,0,i,3,
Cc1cc(=O)oc2cc(OCC(=O)N3CCN(c4ccccc4)CC3)c(Cl)cc12,-9,15,9,-8,6,2,i,5,
Cc1ccc(-c2[nH]c3ccccc3c2SCCNC(=O)c2cc3ccccc3oc2=O)cc1,4,-13,-16,3,4,3,i,35,
O=C(NCc1ccc2c(c1)OCO2)c1cc(-c2ccc(Cl)cc2Cl)on1,-5,x,-23,-2,-4,-2,i,-2,
CCCS(=O)(=O)c1c(S(=O)(=O)CCC)c2c(C)cccn2c1C(N)=O,-13,x,11,3,9,7,i,0,
Cc1cc2ccccc2cc(C)c1=O,12,-137,-20,0,10,8,i,8,
COc1ccc(C(=O)NCC2CCCO2)cc1 (stereo unspecified),6,x,x,3,-2,2,i,18,
O=C(CSc1nc2ccccc2c(=O)n1Cc1ccccc1)Nc1ccc(Br)cc1C(=O)O,65,1,-7,-14,-7,-3,x,12,
Cc1ccc(S(=O)(=O)NC2OC(=O)C(Cl)=C2Cl)cc1 (stereo unspecified),7,-28,-14,-19,-7,-1,i,14,
Cc1ccc(NC2=C(Cl)C(=O)OC2OC(=O)c2ccco2)c(C)c1 (stereo unspecified),4,-25,6,x,3,0,x,x,
CSc1nc2n(n1)C(c1ccccn1)C1=C(CC(C)(C)CC1=O)N2 (stereo unspecified),-10,-9,-12,7,-4,-1,i,-4,
COc1ccc(C(=O)NNC(=O)CSc2nnc(-c3ccc(O)cc3)n2C)cc1,-4,-6,x,-3,2,3,i,-8,
Cc1cc(NC(=O)CSc2ncn(-c3ccccc3)n2)no1,-7,x,-48,-9,-1,-1,i,-4,
CCn1cc(C(=O)N[C@H](C(=O)NCCCOC)C(C)C)c(=O)c2cc3c(cc21)OCO3,-16,-10,8,8,2,3,i,-4,
Cc1nn(CCC#N)c2nc(-c3ccccc3)cc(C(F)(F)F)c12,9,-20,-9,-1,-1,-11,i,18,
Cc1ccc(CN2CC34C=CC(O3)C(C(=O)NCc3ccc5c(c3)OCO5)C4C2=O)cc1 (stereo unspecified),-16,6,2,-4,-2,-1,i,-15,
CCOc1ccc(CCNC(=O)c2[nH]c(C)c(C(C)=O)c2CC)cc1OCC,0,-12,x,-2,7,4,i,-6,
O=C(O)c1cccc(S(=O)(=O)N2CCC(n3nnc4cc(C(F)(F)F)ccc43)CC2)c1,x,18,-22,0,2,5,i,-4,
CCOC(=O)C1=C(C)NC2=C(C(=O)CC(C)(C)C2)C1c1ccc(N(C)C)cc1 (stereo unspecified),-33,-8,x,3,-4,-1,i,2,
NS(=O)(=O)c1ccc(CCNC(=S)Nc2ccccc2)cc1,-41,6,x,3,-4,-3,i,10,
Cn1c2ccccc2c(=O)c2cc(C#Cc3ccsc3)ccc21,5,-49,5,4,-2,-3,i,-3,
C/C(=N\OC(=O)c1c(-c2c(F)cccc2Cl)noc1C)c1nccs1,-3,-3,x,-10,0,-2,i,-8,
CC(=O)N(c1cccc(C(F)(F)F)c1)c1nc(/C=C/C(=O)O)cs1,18,-1,x,-2,1,2,i,0,
CSC1=NCCN1C(=O)c1ccc2ccccc2c1,-24,2,-1,2,3,4,i,16,
COc1ccc(/C=N/NC(=O)CNC(=O)c2cccs2)cc1,7,x,x,5,3,0,i,-2,
COc1ccc(N(C)C(=O)c2ccc3snnc3c2)cc1,-13,x,5,-6,1,1,i,-7,
CN(c1ccccc1)S(=O)(=O)c1cccc(C(=O)Nc2ccc3c(c2)CCC3)c1,-15,x,-28,7,-7,-9,i,2,
CCOc1ccc(CN(C)C(=O)c2ccc3c(c2)NC(=O)C(C)S3)cc1OC (stereo unspecified),10,x,-19,x,-9,-24,x,x,
C=CCC[C@@H](Cc1ccc(F)cc1)C(=O)OC[C@@H](NC(=O)[C@@H](CC=C)CC(=O)N(CCO)Cc1ccccc1)c1ccccc1,x,-85,-13,x,-31,-32,x,x,
Cc1ccnc(NC(=O)CCC(=O)N(CC(=O)NCc2ccc(F)cc2)CC2CCCO2)c1 (stereo unspecified),-20,-1,-6,-21,-2,0,i,-3,
Cn1c(=O)c2c(nc(SCCNS(=O)(=O)c3ccccc3)n2C)n(C)c1=O,-6,-18,-20,-3,1,0,i,4,
Cc1cc(N2C(=O)c3ccc(C(=O)NCc4ccccc4)cc3C2=O)no1,-5,-20,x,-5,2,2,x,-10,
CNC(=O)CCSSCCC(=O)NC,-4,-4,x,1,1,1,i,6,
COc1cc(C=NNc2ccccc2[N+](=O)[O-])cc(OC)c1OC,x,-3,-18,x,15,1,x,x,
C[C@H](CO)N1C[C@H](C)[C@@H](CN(C)S(=O)(=O)c2ccc(F)cc2)Oc2ccc(NC(=O)Nc3ccc4c(c3)OCO4)cc2C1=O,x,-8,12,x,1,-2,x,x,
CCCCN(CCCC)S(=O)(=O)c1ccc(NC(=O)CN2CCOCC2)cc1,-12,x,-5,5,-1,-3,i,-4,
CSc1nnc(C)c(=O)n1COC(=O)COc1ccc(Cl)cc1Cl,-1,8,x,-15,8,7,i,2,
O=C(NC1CCCCCCC1)c1ccc2c(c1)OCO2,-12,-59,-27,-14,2,-2,i,2,
N#CCCn1c(SCC(=O)Nc2ccc(N3CCOCC3)cc2)nc2ccccc21,x,-8,x,4,1,0,i,-2,
N#Cc1ccc(S(=O)(=O)NCC(=O)OCC(=O)NCCc2ccccc2)cc1,-1,-11,19,1,0,4,i,2,
Cc1c(C(=O)c2ccc(F)cc2F)c2ccccn2c1CCC#N,x,6,-20,u,0,10,i,u,
O=C(/C=C/c1ccco1)Nc1cccnc1Cl,-9,-36,-5,17,-2,-4,i,-2,
CC(=O)N1CCN(C(=O)CCc2nc3sc4c(c3c(=O)[nH]2)CCCC4)CC1,-13,-32,x,0,4,-6,i,5,
CCn1cc(C(=O)N[C@@H](C)C(=O)OC)c(=O)c2cc3c(cc21)OCO3,-14,9,-2,-5,-2,-1,i,-6,
COc1cc2c(cc1NC(=O)CSc1nnc(Cc3cccs3)n1Cc1ccco1)oc1ccccc12,51,x,-10,-10,-7,-15,i,-20,
Cc1c(Cl)cccc1NC(=O)CSCC(N)=O,-11,x,-17,3,-2,4,i,-11,
COC(=O)c1c(C)[nH]c(C(=O)OCc2csc(CC(=O)Nc3ccccc3C)n2)c1C,10,-28,-13,x,2,-5,x,x,
O=C1N(CC(=O)N2CCc3ccccc32)CCN1Cc1ccc(Cl)cc1,0,x,-9,11,3,-3,i,8,
CC(C)Cn1c(SCC(=O)NCCCN2CCCC2=O)nc2ccccc21,-10,-2,-21,x,-3,-1,i,x,
CC(=O)c1cccc(NC(=O)c2cc(Cl)sc2Cl)c1,-4,-31,x,-3,3,3,i,-5,
Cc1ccc(OCCC(=O)OCC(=O)Nc2cc(C)cc(C)c2)cc1,-12,21,3,8,1,3,i,8,
Cc1nn(Cc2ccc(C(=O)N3c4ccc(F)cc4CCC3C)o2)c(C)c1Br (stereo unspecified),25,x,3,-3,0,-10,i,-4,
O=C1N=c2ccccc2=C1c1c(O)n(-c2cccc(F)c2)[nH]c1=O,83*,2,x,11,-8,6,i,-2,
CCOC(=O)CSc1ncnc2c1sc1nc(N3CCOCC3)c3c(c12)CCCC3,-16,x,-9,-4,5,-3,i,3,
Cc1ccc(C(C)NC(=O)Cc2cccs2)cc1C (stereo unspecified),-2,-15,5,84,0,1,i,-7,eIF4H FP inh retest=9;PABP polyA inh retest=5
COc1cc(/C=C2\C(=O)ON=C2c2ccccc2)cc(Br)c1O,47,1,-31,u,-35,9,i,u,

# Other entries.
SMILES,CSC inhib,HIV Env fusion,Yeast UUG start,eIF4H FP inh,MT1-MMP act inh,MT1-MMP act inh RFP,Rce1 inhib,PABP polyA inh,others
Cc1ccc(C)c(NC(=O)COC(=O)CNC(=O)c2ccccc2Cl)c1,1,6,5,0,1,0,i,81,eIF4H FP inh retest=9;PABP polyA inh retest=11
COCCCNC(=O)/C=C/c1ccc(Cl)cc1,-9,x,-12,0,4,4,i,2,
Cn1nnnc1SCCNCc1ccccc1OCc1ccc(Cl)cc1,19,-14,7,2,1,-3,i,-1,
COC(=O)c1ccccc1NC(=O)CSc1n[nH]c(-c2ccncc2)n1,0,10,-20,3,3,-8,i,-1,
COC(=O)c1ccc(COc2ccc(-c3nn[nH]n3)cc2)cc1,-7,41,-16,6,10,0,i,-2,
CC1(C)Cc2ccccc2-c2nnc(-c3ccc(O)cc3)n21,-15,x,9,-4,4,4,i,1,
COc1ccc(C(=O)NCCS(=O)(=O)NCc2ccccc2)cc1,2,-17,-6,x,1,1,i,x,
CCOCCCNC(=O)Cc1ccc(OC)c(OC)c1,-2,-48,-5,-6,-2,2,i,-13,
Cc1cc(-c2n[nH]c(=S)o2)c(C)n1-c1ccccc1,x,-37,x,-3,x,x,i,4,
CCSc1nnc(CCNC(=O)OC(C)(C)C)o1,5,u,-23,2,0,1,i,-2,
COc1ccc(S(=O)(=O)c2cnc3ccccc3n2)cc1,20,13,-14,3,-6,-4,i,5,
CCN(c1ccccc1)S(=O)(=O)c1cc(C(=O)Nc2ccc(F)c(F)c2)ccc1F,45,27,-11,5,-11,-28,i,9,
COc1ccc(COc2cc(-c3cccc(OC)c3)nc3ccc(NC(=O)c4ccc(N(C)C)cc4)cc23)cc1,80*,x,14,-3,5,-5,i,8,
CC1=C(C(N)=O)C(c2ccc(C)o2)C(C(N)=O)=C(C)N1,3,0,-17,8,-4,2,i,18,
CCN(CC)C(=O)CN1C(=O)C2(OCC(C)(C)CO2)c2ccccc21,-20,17,-1,x,1,2,x,x,
O=C(O)C[C@H]1c2cc(F)ccc2S(=O)(=O)N1C1CCCC1,-6,-7,14,x,1,3,i,x,
O=C(NCC(=O)N1CCN(c2ccccc2)CC1)c1ccco1,-3,-15,-12,-3,1,5,i,12,
O=C(CCCN1C(=O)C(c2ccccc2)Oc2cccnc21)Nc1ccccc1Cl (stereo unspecified),0,16,-11,x,-5,0,i,x,
CC1(C(=O)Nc2cccc3cccnc23)CCN1Cc1cccc2c1OCO2 (stereo unspecified),x,-2,-11,x,-1,-5,x,x,
O=C(CCN1CCN(c2ccccc2)CC1)N/N=C/c1ccccc1O,39,29,x,-3,-1,-4,i,-8,
COc1ccc(CCNC(=O)c2c(C)nn(-c3ccccc3)c2Cl)cc1,-5,-2,-13,3,-1,0,i,8,
